# HSV augment: enhancers of HSV replication in host cells, fold increase, host cell viability. maximum fold increase. HSV replication augmentation in cells. 220,000 compounds, 0.005% hits;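 active means peak rise of 1.5-fold or more in the series; inconclusive means self-fluorescent or not available for retest; tested in PC3 cells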;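 further: first round at 10 µM; read as green reporter fluorescence; hits show the peak of a series up to 25 µM; 1 = signal of infected wells without compound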
# PKD1 kinase inh: inhibitors of human PKD1 kinase, biochemical, fluorescence polarization. Serine/threonine-protein kinase D1 (Homo sapiens), Q15139. PKD1 kinase fluorescence polarization assay. inhibition, %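 (about 10 µM by stock and volumes)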. 200,000 compounds, 0.056% hits;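 active means inhibition of 50% or more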;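 further: controls were vehicle for no effect and a reference inhibitor for full effect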
# Insulin prom inh: inhibitors of insulin promoter-driven GFP, primary screen, imaging, TRM-6 cells (human fetal islet line), eGFP reporter, cell count; reporter expression induced with tamoxifen; inhibition, % at 2 µM; 130,000 compounds, 0.9% hits; AID 1273, 2008;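 active means inhibition above the mean plus 3 SD, with well images judged a real hit on visual review, cut at about 60% in these data, passing the limit was not always enough; inconclusive means inhibition over the cutoff but images rejected on review; inactive means inhibition not above the cutoff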
# GALR2 agonist: GALR2 receptor agonists, primary screen, cell-based; Galanin receptor type 2 (Homo sapiens), O43603; GALR2-expressing cells, agonist activation read-out; activation, %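 (tested at 5 µM)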; 140,000 compounds, 0.48% hits;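 active means above mean plus 3 SD of all compounds, about 5% in these data, not always enough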;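 further: 0% = vehicle buffer wells and 100% = reference agonist at full effect; tested in CHO reporter cells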
# Target sequence (O43603 whole entry, looked up): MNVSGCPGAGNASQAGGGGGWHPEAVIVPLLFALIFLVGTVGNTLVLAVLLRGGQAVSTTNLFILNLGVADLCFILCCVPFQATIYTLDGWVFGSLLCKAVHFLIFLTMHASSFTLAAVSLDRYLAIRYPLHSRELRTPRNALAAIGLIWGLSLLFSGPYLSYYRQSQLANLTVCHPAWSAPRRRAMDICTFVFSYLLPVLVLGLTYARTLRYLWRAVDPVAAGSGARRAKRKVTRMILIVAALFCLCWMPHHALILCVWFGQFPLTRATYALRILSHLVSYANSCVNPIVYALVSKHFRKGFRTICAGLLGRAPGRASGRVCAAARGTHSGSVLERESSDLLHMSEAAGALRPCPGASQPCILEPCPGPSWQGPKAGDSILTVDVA
# RGS16-Gao HTS: modulators of RGS16 binding to Galphao, primary screen, biochemical, human proteins, multiplexed bead flow cytometry; Regulator of G-protein signaling 16 (Homo sapiens) + Guanine nucleotide-binding protein …; bead-based flow cytometry RGS16-Galphao binding, fluorescence; actives lie on both sides; binding response (% of control), % at 10 µM; 220,000 compounds, 0.38% hits; AID 1441, 2008;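 active means below 25% or above 175%, edge rows of some plates excepted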;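 further: Galphao activated by GDP with aluminum fluoride before binding; 100% = wells without compound and 0% = beads without RGS; some results beyond the cut were filed as inactive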
# Target sequence (O15492 whole entry, looked up): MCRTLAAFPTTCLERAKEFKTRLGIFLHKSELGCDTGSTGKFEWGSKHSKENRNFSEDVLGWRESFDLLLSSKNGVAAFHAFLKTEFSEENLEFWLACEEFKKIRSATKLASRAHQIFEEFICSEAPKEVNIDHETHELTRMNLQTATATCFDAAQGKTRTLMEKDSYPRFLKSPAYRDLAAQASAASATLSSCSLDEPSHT
# Target sequence (P09471 whole entry, looked up): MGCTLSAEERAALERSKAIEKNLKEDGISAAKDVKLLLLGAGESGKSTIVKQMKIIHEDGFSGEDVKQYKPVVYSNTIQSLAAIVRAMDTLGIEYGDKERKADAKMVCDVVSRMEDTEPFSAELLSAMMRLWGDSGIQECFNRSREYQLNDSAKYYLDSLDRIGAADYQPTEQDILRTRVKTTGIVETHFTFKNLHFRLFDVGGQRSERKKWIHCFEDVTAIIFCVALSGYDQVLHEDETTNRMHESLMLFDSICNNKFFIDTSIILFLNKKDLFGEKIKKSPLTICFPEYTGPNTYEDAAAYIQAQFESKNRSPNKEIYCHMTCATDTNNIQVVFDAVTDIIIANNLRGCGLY
# Insulin prom inh cell count: recorded beside Insulin prom inh, whose call it bears; normalized cell count, %; measured here: cell count, toxicity; reference of the scale not given here;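 cells exposed to compound for 48 h; stained nuclei by imaging scaled within each plate; lower means fewer cells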
# HSV augment primary fold: also measured in HSV augment; calls as there; fold increase; compound at 10 µM; measured here: primary screen fold increase 10 uM; tested in PC3 cells;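 GFP signal in the first replicate; 1 = infected wells without compound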
# Active calls of the source: *; i = inactive; ? = inconclusive; / = not tested or not shown.
SMILES,HSV augment,HSV augment primary fold,PKD1 kinase inh,Insulin prom inh,Insulin prom inh cell count,GALR2 agonist,RGS16-Gao HTS
CSc1ncccc1C(=O)OCC(=O)Nc1ccc2c(c1)OCO2,i,0.94,5.6,-33.3,182.1,/,105.2
O=C(O)CCN(CCC(=O)O)c1ccccc1,i,0.66,-6.7,/,/,-1.7,103.9
CCn1c(O)c(C=Nc2ccccc2)sc1=S,i,1.04,-6.2,/,/,/,97.3
Cc1ccc(C(=O)N2CCN(S(C)(=O)=O)C2)cc1,i,0.97,5.9,41.9,84.8,-1.9,99.8
COCCCn1c(-c2ccc(Cl)cc2)n[nH]c1=S,i,1.05,-8.0,11.1,67.2,-1.1,/
CCN(c1ccc(N=Cc2c(O)n(Cc3ccc(OC)cc3)c(=O)c3ccccc23)cc1)C(C)C,?,/,21.2,-471.4,88.1,/,120.0
COc1ccc2c(CC(=O)OCC(=O)Nc3cccc(S(N)(=O)=O)c3)coc2c1,i,0.99,/,/,/,/,94.0
O=C(CC1N=C2c3ccccc3N=C(SCc3ccc(Cl)cc3)N2C1=O)NCc1ccco1 (stereo unspecified),i,0.98,-12.4,-38.9,71.3,0.1,98.0
CC(C)C(C)NC(=O)COC(=O)c1cccc(C(=O)OCC(=O)NC(C)C(C)C)n1 (stereo unspecified),i,1.03,-3.9,-60.0,55.8,/,96.5
CCN(C(=O)c1cnc(NC(C)C)cc1C(F)(F)F)c1ccc(Cl)cc1,i,0.98,/,/,/,/,100.3
C=C(C)CSc1nnc(-c2cccc(S(=O)(=O)N(C)C)c2)n1-c1cc(OC)ccc1OC,i,0.98,0.8,-48.8,68.7,-2.0,98.8
COc1ccc(S(=O)(=O)N(C)CC(=O)NCCC2=CCCCC2)cc1OC,i,1.15,-1.6,-12.9,99.1,-2.9,101.0
CN1CCN(S(=O)(=O)c2ccc(-c3noc(C4CCN(S(C)(=O)=O)CC4)n3)cc2)CC1,i,0.81,4.8,13.9,110.4,-4.2,103.1
O=C(Nc1ccc2c(c1)CCC2)c1ccc(Br)s1,i,0.88,-0.6,/,/,/,105.8
O=c1oc2ccc3ccccc3c2cc1-c1nnc(-c2ccccc2)o1,i,0.85,-5.9,/,/,-1.7,98.7
CN1CCN(c2cc(C(F)(F)F)nc3ccc(F)cc23)CC1,i,0.97,/,/,/,/,101.5
CC(C)NC(=O)CSc1nc(-c2cccs2)cc(-c2ccccc2)c1C#N,i,0.87,-0.2,52.4,107.9,-1.3,102.5
Cc1cc(CNCc2c(C(=O)N(C)Cc3ccccc3)nc3ccccn23)nn1C,i,1.02,-6.8,/,/,/,99.6
CCOc1ccc(N(CC(=O)Nc2cccc(F)c2)S(=O)(=O)c2c(C)noc2C)cc1,i,0.76,7.6,/,/,-1.1,177.4
Cc1ccc(C2C(C#N)=C(N)N(N(C)C)C3=C2C(=O)CCC3)cc1 (stereo unspecified),i,1.1,-3.4,-2.0,81.6,-1.1,92.2
CC(Oc1ccc(Cl)cc1Cl)C(=O)Nc1ccc2oc(-c3ccncc3)nc2c1 (stereo unspecified),i,0.88,-7.1,16.7,126.6,-3.0,101.9
N#C/C(=C1\CCCN1)c1nc2ccccc2c(=O)[nH]1,i,0.987,-7.3,-53.9,112.3,-1.6,102.4
COCCn1c(=NC(=O)c2ccc3c(c2)OCO3)c(C#N)cc2c(=O)n3cccc(C)c3nc21,i,0.86,15.2,-14.3,135.0,2.0,91.2
C=C(C)COc1ccc(-c2n[nH]c(C)c2-c2ccc(OC)c(OC)c2)c(O)c1,i,0.7,/,/,/,/,101.4
N#C/C(=C/c1ccc(CNS(=O)(=O)c2ccccc2)o1)C(=O)NCc1ccccc1,i,0.94,5.1,-14.8,80.5,-0.9,105.9
SMILES,HSV augment,HSV augment primary fold,PKD1 kinase inh,Insulin prom inh,Insulin prom inh cell count,GALR2 agonist,RGS16-Gao HTS
COc1cc(C(CCN2CCCC(C)C2)c2c(OC)cc(OC)c3c2OC(=O)CC3c2ccc(N(C)C)cc2)cc(OC)c1OC (stereo unspecified),i,0.69,/,/,/,/,100.2
O=C(c1sc2cc(F)ccc2c1Cl)N1CCN(c2cccc(Cl)c2)CC1,i,0.98,-14.7,/,/,0.3,108.5
O=C(Nc1nnc(C(F)(F)F)s1)c1cccnc1,i,1.11,-6.4,31.0,167.7,-2.7,106.2
O=C(CCc1nc2ccccc2s1)OCC(=O)c1ccccc1,i,1.06,-11.6,/,/,-1.8,99.2
O=C(NCCc1nc2ccccc2[nH]1)/C(=C/c1ccco1)NC(=O)c1ccc(Br)o1,i,1.11,-8.7,-8.8,52.6,-1.3,170.4
O=C(CCC1CCCN(Cc2cccc3c2OCO3)C1)NCc1ccc(F)c(F)c1 (stereo unspecified),i,0.99,0.3,-4.3,96.4,/,106.4
COc1ccccc1C(c1c(N)n(C)c(=O)n(C)c1=O)C(C)[N+](=O)[O-] (stereo unspecified),i,0.95,/,/,/,/,100.6
O=C(CCCN1C(=O)c2ccccc2C1=O)NCCCn1ccnc1,i,0.98,-9.8,/,/,/,101.2
CCN(CC)C1CCN(Cc2cn[nH]c2-c2ccc(OC)c(F)c2)C1 (stereo unspecified),i,0.96,-4.5,/,/,/,98.0
CC(=O)NCCN=C(C)c1sc2ccccc2c1O,i,0.94,0.8,/,/,-0.2,98.8
N#Cc1ccc(-c2ccc3c(c2)OCO3)nc1SCC(=O)OCc1ccccc1,i,1.12,-3.5,-50.0,94.6,-0.7,107.7
CCOC(=O)C1CCN(Cc2ccc(C(=O)OC)cc2)CC1,i,0.92,-5.8,-27.3,101.0,0.2,105.5
CC1=NN(c2ccccc2)C(=O)C1/C=C1/NC(=S)NC1=O (stereo unspecified),i,1.02,/,/,/,/,104.1
COc1ccc(-c2c(C)n([O-])c(C)c(C)[n+]2=O)cc1OC,/,/,2.0,7.1,114.8,-0.6,61.4
COc1ccc(C(=O)N/C(=C\c2cc(OC)c(OC)cc2[N+](=O)[O-])C(=O)NCC(=O)O)cc1,i,0.67,4.1,38.9,81.9,/,111.6
COC(=O)c1[nH]cnc1C(=O)c1ccccc1,i,0.98,-10.9,/,/,-3.8,96.2
CN(CCO)C1=CC(=O)CC(C)(C)C1,i,0.95,5.0,-155.2,46.2,-2.4,100.3
CC(C)(C)c1ccc(OCC(=O)NCCN2CCCC2)cc1,/,/,-7.7,-114.3,90.8,-1.0,112.2
Cc1ccc(-c2ccccc2NC(=O)CCl)o1,i,0.98,1.3,25.6,75.2,-3.5,104.9
CC1=CC(=O)N(c2ccn(C)n2)C1=O,i,1.02,/,/,/,/,95.6
CCOC(=O)C(=O)NNc1cccc(C)c1C,i,1,-0.9,25.7,135.1,-0.5,108.2
C#CCOc1c(Br)cc(/C=N/O)cc1OCC,i,0.91,1.4,0.0,165.9,0.1,51.4
O=C(O)c1ccc(NCc2ccncc2)cc1,i,0.89,-4.7,/,/,-2.8,121.1
Cc1ccn2c(=O)c(C(=O)O)cnc2c1,i,1.09,/,/,/,/,92.8
Cc1cccc(NC2=NCC(=O)N2Cc2cccs2)c1,i,0.88,-7.4,/,/,/,142.5
SMILES,HSV augment,HSV augment primary fold,PKD1 kinase inh,Insulin prom inh,Insulin prom inh cell count,GALR2 agonist,RGS16-Gao HTS
CC(/C=N/NC(=O)c1cccs1)=C\c1ccco1,i,1.22,-4.9,-225.0,13.0,/,107.3
CCOC(=O)C1CCN(C(=O)Nc2ccc(NC(=O)C3CCN(C(=O)OCC)CC3)cc2)CC1,i,0.81,-9.7,/,/,-0.5,97.2
CC(C)(C)c1nc(SCC(=O)Nc2nc3c(s2)CCCC3)c2ccccc2n1,i,0.67,-9.5,-13.3,111.3,0.7,108.8
O=C(Nc1ccn(C2CC(OC(=O)c3ccccc3)C(CO)O2)c(=O)n1)c1ccccc1 (stereo unspecified),i,0.83,-11.0,/,/,-1.1,101.5
CCCOC(=O)c1ccc(NC(=O)CSC2=Nc3ccccc3C3CC=NN23)cc1 (stereo unspecified),i,0.86,2.2,-32.4,88.6,-1.1,93.2
O=[N+]([O-])c1ccc(/C=N/n2c(C3CCCCC3)n[nH]c2=S)cc1,i,0.99,9.0,20.7,148.4,-2.3,101.8
CC(NC(=O)c1ccc(CS(=O)(=O)c2cccc(C(F)(F)F)c2)o1)c1ccc2c(c1)OCCO2 (stereo unspecified),i,0.85,5.5,-36.1,89.8,3.5,100.7
N#CC1=C(N)N(c2ccccc2C#N)C2=C(C(=O)CCC2)C1c1ccsc1 (stereo unspecified),i,0.95,-10.9,/,/,-1.1,96.6
CCn1cc(CN2CCN(Cc3cccc(OC)c3)C(CCO)C2)c(C)n1 (stereo unspecified),i,1,-9.9,13.0,243.4,/,105.4
COc1ccc(NC(=O)C2=CCN(S(=O)(=O)c3ccccc3)CC2)cc1OC,i,0.91,/,/,/,/,101.2
COc1ccc(C2CC(c3ccccc3)n3nc(NC(=O)c4cccs4)nc3N2)cc1 (stereo unspecified),/,/,2.2,/,/,1.0,106.8
O=C(Cn1cnc2c(nnn2-c2ccc(F)cc2)c1=O)N1CCCC1,i,1.02,-1.5,/,/,-2.4,85.8
Cc1nn2c(-c3ccccc3)ccnc2c1-c1ccccc1,i,0.91,2.2,-16.2,155.3,-1.5,100.0
O=C(COC(=O)c1cc([N+](=O)[O-])ccc1NCCO)c1ccc(Cl)cc1,i,0.88,-2.3,/,/,-0.5,99.6

# An excerpt of these results, field by field:
CC(C)(C)c1nc(SCC(=O)Nc2nc3c(s2)CCCC3)c2ccccc2n1
- HSV augment: i
- HSV augment primary fold: 0.67
- PKD1 kinase inh: -9.5
- Insulin prom inh: -13.3
- Insulin prom inh cell count: 111.3
- GALR2 agonist: 0.7
- RGS16-Gao HTS: 108.8

O=C(Nc1ccn(C2CC(OC(=O)c3ccccc3)C(CO)O2)c(=O)n1)c1ccccc1 (stereo unspecified)
- HSV augment: i
- HSV augment primary fold: 0.83
- PKD1 kinase inh: -11.0
- Insulin prom inh: /
- Insulin prom inh cell count: /
- GALR2 agonist: -1.1
- RGS16-Gao HTS: 101.5

CCCOC(=O)c1ccc(NC(=O)CSC2=Nc3ccccc3C3CC=NN23)cc1 (stereo unspecified)
- HSV augment: i
- HSV augment primary fold: 0.86
- PKD1 kinase inh: 2.2
- Insulin prom inh: -32.4
- Insulin prom inh cell count: 88.6
- GALR2 agonist: -1.1
- RGS16-Gao HTS: 93.2

O=[N+]([O-])c1ccc(/C=N/n2c(C3CCCCC3)n[nH]c2=S)cc1
- HSV augment: i
- HSV augment primary fold: 0.99
- PKD1 kinase inh: 9.0
- Insulin prom inh: 20.7
- Insulin prom inh cell count: 148.4
- GALR2 agonist: -2.3
- RGS16-Gao HTS: 101.8

# Sorted by SMILES length (low to high): four of the compounds above
SMILES,HSV augment,HSV augment primary fold,PKD1 kinase inh,Insulin prom inh,Insulin prom inh cell count,GALR2 agonist,RGS16-Gao HTS
C#CCOc1c(Br)cc(/C=N/O)cc1OCC,i,0.91,1.4,0.0,165.9,0.1,51.4
Cc1nn2c(-c3ccccc3)ccnc2c1-c1ccccc1,i,0.91,2.2,-16.2,155.3,-1.5,100.0
CCCOC(=O)c1ccc(NC(=O)CSC2=Nc3ccccc3C3CC=NN23)cc1 (stereo unspecified),i,0.86,2.2,-32.4,88.6,-1.1,93.2
COCCn1c(=NC(=O)c2ccc3c(c2)OCO3)c(C#N)cc2c(=O)n3cccc(C)c3nc21,i,0.86,15.2,-14.3,135.0,2.0,91.2

# High-throughput results (PubChem BioAssay)

# Compounds as they come (roughly 1.2% active in at least one column).
